# Bioassay records as filed in PubChem BioAssay.
# GLA inh pH 4.5 = inhibitors of human alpha-galactosidase A at pH 4.5. P06280. purified enzyme, 4-MU-alpha-Gal fluorescence, pH 4.5. activity change, negative = inhibition, % at 105 µM. 230,000 tested, under 10 active; inconclusive = small, poorly fitted or top-dose-only inhibition, or a rising curve; inactive = flat fitted curve, though single readings scatter; no compound was filed as active;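 further: 0% = full activity with enzyme and -100% = basal without enzyme; dose as in the result columns while the protocol names 77 µM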
# Target sequence (P06280 whole entry, looked up): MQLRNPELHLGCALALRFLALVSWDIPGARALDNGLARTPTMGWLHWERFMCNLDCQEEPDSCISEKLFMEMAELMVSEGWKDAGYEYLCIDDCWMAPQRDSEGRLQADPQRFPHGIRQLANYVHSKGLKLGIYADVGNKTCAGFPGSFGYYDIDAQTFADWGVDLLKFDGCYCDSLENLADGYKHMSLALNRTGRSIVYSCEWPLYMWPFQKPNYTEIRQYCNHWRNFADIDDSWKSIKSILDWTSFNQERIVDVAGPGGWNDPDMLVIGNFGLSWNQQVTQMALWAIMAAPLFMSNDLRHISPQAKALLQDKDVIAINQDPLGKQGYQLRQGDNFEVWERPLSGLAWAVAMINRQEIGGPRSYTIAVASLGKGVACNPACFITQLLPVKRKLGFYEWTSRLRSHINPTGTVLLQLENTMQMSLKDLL
# * marks the source's active call; other numbers are inactive results; u = inconclusive; & = joins results of further samples. This is a subset, so the mix of outcomes need not match the whole.
SMILES,GLA inh pH 4.5
CN1[C@@H]2CC[C@H]1CC(O[C@@H](c1ccccc1)c1ccc(Cl)cc1)C2 (stereo partly drawn),-26
CCCCCC1C(=O)O[C@H](C)[C@@H](NC(=O)c2cccc(NC=O)c2O)C(=O)OC(C)C1OC(=O)CC(C)C (stereo partly drawn),-9
CNc1ccc2oc(C[C@@H]3OC4(CC[C@@H]3C)O[C@H](C(C)C(=O)c3ccc[nH]3)[C@H](C)C[C@H]4C)nc2c1C(=O)O (stereo partly drawn),5
CC(=O)OC1CC[C@@]2(C)C3CC[C@]4(C)C(=O)CCC4C3CC[C@H]2C1 (stereo partly drawn),-9
CCNC[C@H](O)c1cccc(O)c1,9
NC(=NCCC[C@H](N)C(=O)O)N[N+](=O)[O-],-3&5
CC(C)(O)[C@H]1O[C@@H]2CC[C@]3(C)[C@@]4(C)c5[nH]c6ccccc6c5C[C@@H]4CC[C@]3(O)C2=CC1=O,3
COc1cc(C2c3cc4c(cc3C(OC(C)=O)[C@H]3COC(=O)C23)OCO4)cc(OC)c1OC (stereo partly drawn),-3&-22
N#C/C(=C\c1cccc(O)c1)C(=O)O,-2
CCCn1c(C)c(C(=O)c2ccc3ccccc3c2)c2ccccc21,-7
COc1cc2c(cc1-c1cc3cc4ccoc4cc3oc1=O)OCO2,-4
O=C1CCCC2[C@@H]3CCCN4CCC[C@@H](CN12)C34 (stereo partly drawn),2
CCN(CC)c1ncnc2c1ncn2[C@@H]1O[C@@H](COP(=O)(O)OP(=O)(O)C(Br)(Br)P(=O)(O)O)[C@H](O)[C@H]1O,5
COc1cc(OC2CCN(C(C)=O)CC2)ccc1C(=O)N1CCC(N2C(=O)OCc3ccccc32)CC1,0
Nc1ncnc2c1ncn2[C@@H]1O[C@H](COP(=O)(O)OP(=O)(O)OP(=O)(O)O)[C@H]2OC3(O[C@H]21)C([N+](=O)[O-])=CC(=[N+]([O-])[O-])C=C3[N+](=O)[O-] (stereo partly drawn),-5
O=C1CCC[C@H]2[C@H]3CCCN4CCCC(=CN12)[C@@H]34,-1
CN1C(=O)[C@@H](NC(=O)c2cc3ccccc3[nH]2)N=C(c2ccccc2)c2ccccc21,-11
CC(=O)OC1CCC23C(=O)OC45CCC(C6=CC(=O)OC6)C4(C)CCC2C5CCC3(O)C1 (stereo not drawn),5
CC1(C)C(C(Cl)Cl)C2(Cl)C(Cl)C(Cl)C1(Cl)C2(Cl)Cl (stereo not drawn),-3
COC(=O)c1cc2c(cn1)[nH]c1ccccc12,-4
C[C@H](N)[C@H](O)c1ccc(O)c(O)c1,-5
O=C1NCN(c2ccccc2)C12CCN(C[C@H]1COc3ccccc3O1)CC2,-3
C[C@@H]1Cc2c(Cl)cc(C(=O)N[C@@H](Cc3ccccc3)C(=O)O)c(O)c2C(=O)O1,u
[N-]=[N+]=CC(=O)OCC(N)C(=O)O (stereo not drawn),-5
CN1CCc2cc(O)cc3c2C1Cc1ccc(O)c(O)c1-3 (stereo not drawn),-2
CCCN1CCc2cc(O)cc3c2C1Cc1ccc(O)c(O)c1-3 (stereo not drawn),-2
Ic1ccccc1CNC1C2CCN(CC2)C1C(c1ccccc1)c1ccccc1 (stereo not drawn),-5
NCCc1ccccn1,-7
Cc1ccc(N=CN(C)C=Nc2ccc(C)cc2C)c(C)c1,5
COC[C@]12CN(C=O)C3C4C(OC)C1[C@@]3(C1CC3(O)C(OC)C(O)C4(OC(C)=O)C1C3OC(=O)c1ccccc1)[C@@H](OC)CC2O (stereo partly drawn),4
C[C@@H](Cc1ccc(O)cc1)NC[C@@H](O)c1cc(O)cc(O)c1,5
CC1=CC(=O)c2c(O)cccc2C1=O,-5&-6
C[C@H](N)Cc1cnc[nH]1,-4
CC(=O)N[C@@H]1CCSC1=O,2
O=[N+]([O-])OC1CO[C@H]2C(O[N+](=O)[O-])COC12 (stereo partly drawn),0
OCC(O)Cc1ccc2c(c1)OCO2 (stereo not drawn),-2
CC(C)(C)c1o[nH]c(=O)c1C[C@H](N)C(=O)O,-12
CNC(C)C(O)c1ccccc1 (stereo not drawn),5
Cc1nc(-c2ccc(-c3ccc(C(=O)N4CCc5cc6c(cc54)C4(CCN(C)CC4)CO6)cc3)c(C)c2)no1,-10&-1
CC(O)C(C)OC(=O)[C@@H]1C[C@@H]2c3cccc4c3c(cn4C(C)C)C[C@H]2N(C)C1 (stereo partly drawn),-6
O=P(c1ccccc1)(c1ccccc1)N1CC2(CC2)CC(O)(c2ccccc2)C1 (stereo not drawn),3
COC[C@H]1OC(=O)c2coc3c2[C@@]1(C)C1=C(C3=O)C2CCC(=O)[C@@]2(C)C[C@H]1OC(C)=O (stereo partly drawn),-1&-8
C=C(CC1(CNP(=O)(c2ccccc2)c2ccccc2)CC1)c1ccccc1,-5
c1ccc2sc(C3(N4CCCCC4)CCCCC3)cc2c1,-2&-15
C[C@@H]1O[C@@H](OC2CC(O)C3(CO)C4C(CCC3(O)C2)C2(O)CCC(C3=CC(=O)OC3)C2(C)C[C@H]4O)[C@H](O)[C@H](O)[C@H]1O (stereo partly drawn),0
CCCCCC[C@H]1C(=O)O[C@H](C)[C@H](NC(=O)c2cccc(NC=O)c2O)C(=O)O[C@@H](C)[C@@H]1OC(=O)CC(C)C,-14
CCCCC/C=C\C/C=C\C/C=C\C/C=C\CCCC(=O)N[C@H](C)CO,-8&-6
O=[N+]([O-])O[C@H]1CO[C@H]2[C@H]1OC[C@@H]2O[N+](=O)[O-],5
CC[C@@H]1[C@@H]2C[C@H]3[C@H]4N(C)c5ccccc5[C@@]45C[C@@H]([C@@H]2[C@@H]5O)N3[C@H]1O,13
Cc1c(O)c(O)cc2c1CC=C1[C@]3(C)CC[C@]4(C)CC[C@@](C)(C(=O)O)CC4[C@]3(C)CC[C@]12C (stereo partly drawn),1
# (continued)
SMILES,GLA inh pH 4.5
CCNC(C)Cc1cccc(C(F)(F)F)c1 (stereo not drawn),-17
CN1[C@@H]2CC[C@H]1CC(OC(=O)N1Cc3ccccc3NC1=O)C2 (stereo partly drawn),-4
C[C@H]1[C@@H](O)[C@@H](C)/C=C\C=CCC\C=C/C=C\C=C/C=C[C@@H](O[C@H]2O[C@@H](C)[C@@H](O)[C@@H](N)[C@@H]2O)C[C@@H]2O[C@@](O)(C[C@@H](O)[C@H]2C(=O)O)C[C@@H](O)[C@@H](O)CC[C@@H](O)C[C@@H](O)C[C@@H](O)CC(=O)O[C@H]1C,4
CC(=O)CC1CCCCN1 (stereo not drawn),6
Cc1ncc(CN2CC=C(c3ccccc3)CC2)c(N)n1,-3
CCN1C[C@@]2(COC)CC[C@H](OC)[C@]34[C@@H]1[C@]1(OCO[C@@]15C[C@@H](OC)C1C[C@H]3[C@H]5[C@@H]1OC)[C@H](O)[C@@H]24,4
Clc1cncc(N2CCNCC2)n1,-11
COc1ccc2c(c1)c(CCN1CCOCC1)c(C)n2C(=O)c1cccc(Cl)c1Cl,-6
c1ccc(CCCCN2CCC(c3ccccc3)CC2)cc1,-6
CN1C2CC3CC1C(O3)C2O (stereo not drawn),6
C=CCSSCC=C,27
CCCCCCC(C)(C)c1cc(OC)c2c(c1)OC(C)(C)[C@@H]1CC=C(C)C[C@@H]21,5
CC1CC(C)C(=O)[C@H](C(O)CC2CC(=O)NC(=O)C2)C1 (stereo partly drawn),-4
CN1C(=O)C(O)N=C(c2ccccc2)c2cc(Cl)ccc21 (stereo not drawn),-1
C=CCN,-1
CC(=O)OC1CC[C@]2(C)C(CCC3C2CC[C@]2(C)C(C4=CC(=O)OC4)C(OC(C)=O)CC32O)C1 (stereo partly drawn),-7
N[C@@H](Cn1cc(I)c(=O)[nH]c1=O)C(=O)O,-5&-10
O=P(O)(O)C(Cl)(Cl)P(=O)(O)O,1
OC[C@@H]1CCCN2CCCC[C@@H]12,2
C[C@@H]1O[C@H](O[C@@H]2C[C@@H](O)[C@]3(CO)[C@H]4[C@H](O)C[C@]5(C)[C@@H](C6=CC(=O)OC6)CC[C@@]5(O)[C@@H]4CC[C@]3(O)C2)[C@@H](O)[C@H](O)[C@H]1O,-2

# Copied from the listing for reference:
SMILES,GLA inh pH 4.5
CN1[C@@H]2CC[C@H]1CC(O[C@@H](c1ccccc1)c1ccc(Cl)cc1)C2 (stereo partly drawn),-26
CCCCCC1C(=O)O[C@H](C)[C@@H](NC(=O)c2cccc(NC=O)c2O)C(=O)OC(C)C1OC(=O)CC(C)C (stereo partly drawn),-9
CNc1ccc2oc(C[C@@H]3OC4(CC[C@@H]3C)O[C@H](C(C)C(=O)c3ccc[nH]3)[C@H](C)C[C@H]4C)nc2c1C(=O)O (stereo partly drawn),5
CC(=O)OC1CC[C@@]2(C)C3CC[C@]4(C)C(=O)CCC4C3CC[C@H]2C1 (stereo partly drawn),-9
CCNC[C@H](O)c1cccc(O)c1,9
NC(=NCCC[C@H](N)C(=O)O)N[N+](=O)[O-],-3&5
CC(C)(O)[C@H]1O[C@@H]2CC[C@]3(C)[C@@]4(C)c5[nH]c6ccccc6c5C[C@@H]4CC[C@]3(O)C2=CC1=O,3
COc1cc(C2c3cc4c(cc3C(OC(C)=O)[C@H]3COC(=O)C23)OCO4)cc(OC)c1OC (stereo partly drawn),-3&-22
N#C/C(=C\c1cccc(O)c1)C(=O)O,-2
CCCn1c(C)c(C(=O)c2ccc3ccccc3c2)c2ccccc21,-7
COc1cc2c(cc1-c1cc3cc4ccoc4cc3oc1=O)OCO2,-4
O=C1CCCC2[C@@H]3CCCN4CCC[C@@H](CN12)C34 (stereo partly drawn),2
CCN(CC)c1ncnc2c1ncn2[C@@H]1O[C@@H](COP(=O)(O)OP(=O)(O)C(Br)(Br)P(=O)(O)O)[C@H](O)[C@H]1O,5
COc1cc(OC2CCN(C(C)=O)CC2)ccc1C(=O)N1CCC(N2C(=O)OCc3ccccc32)CC1,0
Nc1ncnc2c1ncn2[C@@H]1O[C@H](COP(=O)(O)OP(=O)(O)OP(=O)(O)O)[C@H]2OC3(O[C@H]21)C([N+](=O)[O-])=CC(=[N+]([O-])[O-])C=C3[N+](=O)[O-] (stereo partly drawn),-5
O=C1CCC[C@H]2[C@H]3CCCN4CCCC(=CN12)[C@@H]34,-1
CN1C(=O)[C@@H](NC(=O)c2cc3ccccc3[nH]2)N=C(c2ccccc2)c2ccccc21,-11

# Remaining list, next part
SMILES,GLA inh pH 4.5
COc1ccc(C[C@@H]2NC[C@H](O)[C@@H]2OC(C)=O)cc1,-4
CN(C)c1ccc(/C=C2\CCCN=C2c2cccnc2)cc1,-7
C=CCN1C[C@H](C)N([C@H](c2ccc(C(=O)N(CC)CC)cc2)c2cccc(OC)c2)C[C@H]1C,-10
COC(=O)C(N)CCCN=C(N)N[N+](=O)[O-] (stereo not drawn),-4
CCCCC/C=C\C/C=C\C/C=C\C/C=C\CCCCCC(=O)NCCO,-25&-2&-7
CC1OC(O[C@@H]2C(O)CC(O[C@@H]3C(O)C[C@@H](OC4CC[C@]5(C)[C@H](CC[C@H]6[C@@H]5CC[C@]5(C)C(C7=CC(=O)OC7)C(O)C[C@@]65O)C4)OC3C)OC2C)CC(O)C1O (stereo partly drawn),-7
O=c1ccc2[nH]cc(C3=CCNCC3)c2[nH]1,5
O=CN1CCCCC1C1CC[C@H]2CCCCN2C1 (stereo partly drawn),3
C=CC1CN2CCC1CC2C(OC(=O)OCC)c1ccnc2ccc(OC)cc12 (stereo not drawn),-2
CC(=O)c1c(O)c(C)c(O)c(Cc2c(O)c3c(c(C(=O)/C=C/c4ccccc4)c2O)OC(C)(C)C=C3)c1O,-1&-2
CCC(C)C(=O)OC1C(O)C2C(CN3CC(C)CCC3[C@]2(C)O)C2C[C@]34O[C@@]5(O)C(OC(=O)C(C)(O)C(C)O)CCC3(C)C5C(OC(C)=O)C(OC(C)=O)C4[C@@]21O (stereo partly drawn),1
C[C@]12[C@H](O)CC3C(CC[C@@H]4C[C@@H](O)CC[C@]34C)[C@@]1(O)CC[C@@H]2C1=CC(=O)OC1 (stereo partly drawn),-7
C[C@@]12CC(c3ccoc3)OC(=O)C1CC[C@@]1(C)C2C2C=C[C@@]1(O)C(=O)O2 (stereo partly drawn),-4
CCN(CC)CCO[C@H]1CC[C@@]2(C)C(=CC[C@@H]3[C@H]2CC[C@]2(C)C(=O)CC[C@H]32)C1,-15
O=C1CCCC2C3CC(CN12)C1CCCCN1C3 (stereo not drawn),-5
C[C@]12CCC3C(CC[C@H]4C[C@H](O)CC[C@]34C)C1CC[C@@H]2C(=O)CO (stereo partly drawn),1
O=C(O)C1CN(CP(=O)(O)O)CCN1 (stereo not drawn),-4
CC(N)c1cccc(Cl)c1Cl (stereo not drawn),-3
CC(C)[C@]1(O)[C@@H](OC(=O)c2ccc[nH]2)[C@@]2(O)[C@@]3(C)C[C@]4(O)O[C@@]5([C@H](O)[C@@H](C)CC[C@]35O)[C@@]2(O)C41C,-3
CC(=O)N1CC2CC(C1)c1cccc(=O)n1C2 (stereo not drawn),5
CN1C[C@H](CNC(=O)OCc2ccccc2)C[C@H]2c3cccc4c3c(cn4C)C[C@@H]21,-3&0
NC[C@H](O)c1ccc(O)cc1,4
O=C(CN1CCCCC1c1cccnc1)c1ccccc1 (stereo not drawn),-8
COc1c2c(c(CC=C(C)C)c3oc(=O)c(-c4ccc(O)cc4)c(O)c13)OC(C)(C)C=C2,9
CCCCSP(=O)(SCCCC)SCCCC,0
NC(=O)c1ccc(OCC(O)CN2CC=C(c3ccc(F)cc3)CC2)cc1 (stereo not drawn),-3
CN1CCc2cc3c(cc2C1O)OCO3 (stereo not drawn),u
O=C1CC2OCC=C3CN4CC[C@]56c7ccccc7N1[C@H]5[C@H]2C3C[C@H]46 (stereo partly drawn),-1
C[N+]1(C)CCO[C@](O)(c2ccc(-c3ccc([C@]4(O)C[N+](C)(C)CCO4)cc3)cc2)C1,1
CCCN[C@@H]1CCc2c(OC)cccc2[C@@H]1C,-4
CNC[C@H](O)c1ccc(O)cc1,-9
CCN1C[C@]2(C)CC[C@H](OC)[C@@]34[C@@H]2[C@H](OC(C)=O)[C@]2(OCO[C@@]25C[C@@H](OC)[C@@H]2C[C@@]3(O)[C@H]5[C@@H]2OC)[C@H]14,-4
C[N+]1=Cc2cc3c(cc2CC1)OCO3,u
CC1O[C@@H](O[C@@H]2C(O)C[C@H](O[C@@H]3C(O)C[C@@H](OC4CC[C@@]5(C)C6CC[C@]7(C)C(C8=CC(=O)OC8)CC[C@@]7(O)C6CC[C@@H]5C4)OC3C)OC2C)CC(O)[C@H]1O (stereo partly drawn),0
